Compound activity deposited in PubChem BioAssay by Fisher Drug Discovery Resource Center.
NPYLR7 ag = activates Aedes aegypti NPYLR7 receptor | HEK293T NPYLR7/Galpha15, GCaMP6s calcium fluorescence | activation, % at 10 µM | 0.15% of 270,000 active; in the data active = activation above about 40%;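 also: 0% = vehicle and 100% = reference agonist at the receptor; some compounds past the cut are filed as inactive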
NPYLR7 ag max-min = further read-out of NPYLR7 ag, marked with its call; activation, %; measured here: Max-Min RFU normalised activation; some inactives read as strong as hits;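 span of the calcium signal over five minutes; 0% = vehicle and 100% = native peptide agonist; compound fluorescence can raise it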
* marks the source's active call; other numbers are inactive results; & = joins results of further samples. Only part of the results is shown. The share of hits here may be higher or lower than overall.

The opening 4 entries (preview)
#	structure	NPYLR7 ag	NPYLR7 ag max-min
1	OC[C@@H](Cc1ccccc1)NC[C@@H]1CCCN2CCCC[C@H]12	0	0
2	Cc1ccc(C(=O)N(C)C)cc1NS(=O)(=O)/C=C/c1ccccc1	0	0
3	O=c1c2ccccc2cc(Br)c2sccc12	-4&5	-10&-2
4	Cc1c(C)n2c3c(=O)[nH]c(=O)n(C)c3nc2n1CCN1CCC(C(N)=O)CC1	7	10

The whole of this part (from the top)
#	structure	NPYLR7 ag	NPYLR7 ag max-min
1	OC[C@@H](Cc1ccccc1)NC[C@@H]1CCCN2CCCC[C@H]12	0	0
2	Cc1ccc(C(=O)N(C)C)cc1NS(=O)(=O)/C=C/c1ccccc1	0	0
3	O=c1c2ccccc2cc(Br)c2sccc12	-4&5	-10&-2
4	Cc1c(C)n2c3c(=O)[nH]c(=O)n(C)c3nc2n1CCN1CCC(C(N)=O)CC1	7	10
5	N#Cc1c(-c2ccccc2)cc(=O)n2c1[nH]c1ccccc12	4	4
6	COc1ccc(Nc2cn[nH]c(=S)n2)cc1	-6	-8
7	CC(=O)NCCc1nc2ccccc2n1Cc1cccc2ccccc12	0	7
8	CCc1nc2ccc(C(=O)Nc3ccc4c(c3)OCC(=O)N4)cn2c1N(CC)Cc1ccc(OC)c(OC)c1	-3	-7
9	CN(C)C(=O)c1ccc(N2CCC(NCCC3(c4ccccc4)CCOC(C)(C)C3)CC2)cc1 (stereo not given)	6	3
10	O=C(c1ccccn1)N(Cc1ccccc1)c1nc(-c2ccc(F)cc2)cs1	0	3
11	CCS(=O)(=O)c1ccc(CC(=O)N(C)C2CCCCC2C)cc1 (stereo not given)	0	-4
12	O=C(c1ccc2c(c1)OCO2)N1CCC(n2cc(-c3ccccn3)nn2)CC1	2	-5
13	COc1ccccc1NC(=O)C1CCN(C(=O)C2CC3CCC2C3)CC1 (stereo not given)	-5	-6
14	Cc1oc(-c2cccs2)nc1CN1CCNC(C(=O)N2CCCC2)C1 (stereo not given)	1	15
15	Cc1cc2c(cc1Cl)N1CCS(=O)(=O)N=C1S2	1	0
16	CCc1ccccc1OCCCN(C)C(=O)[C@@H]1C[C@@H](O)CN1	1	-2
17	COc1ccc(C2Nc3ccccc3C(=O)N2c2ccc(Cl)cc2)cc1COc1ccccn1 (stereo not given)	-7	-7
18	C=CCNC(=O)CSc1nnc2n(CCCC)c(=O)c3ccccc3n12	-5	-12
19	CC(C)C(C)N(Cc1ccc(F)c(F)c1)Cc1cccn1Cc1ccc(C(F)(F)F)cc1 (stereo not given)	3	8
20	CC(=O)Nc1ccc(CC2CCN(Cc3ccc(F)c(C(F)(F)F)c3)CC2)cc1	3	12
21	CC(C)NC(=O)N1CCCC(c2nnc(Cc3ccc(F)cc3)o2)C1 (stereo not given)	-5	0
22	CCOC(=O)C1C(=O)CSC1=Nc1ccc(Cl)cc1 (stereo not given)	-3	7
23	NS(=O)(=O)C#Cc1ccccc1	4&2	8&-52
24	COc1cc(OC)cc(C(=O)NCC2CCCN(Cc3ccncc3)C2)c1 (stereo not given)	3&12	0&14
25	Cc1ccc(C(=O)Nc2ccc(N3CCC(N(C)Cc4cn(C)nc4C)CC3)cc2)c(C)c1	8	5
26	COCCN(Cc1c(-c2cccc(C)c2)noc1N1CCCC1)C(=O)Nc1cccc(Cl)c1	-5	1
27	CC(C)Nc1ccc(C(=O)N2CCOCC2)cn1	-5	-13
28	CN(Cc1ccc2ccccc2n1)C(=O)c1ccc(N2CCOCC2)nc1	-1	-6
29	Cc1cc(-c2nn(-c3ccccc3F)cc2CN2CCN(c3cnccn3)CC2)c(C)s1	19	8
30	O=C(Cn1cnc2c(nnn2-c2ccccc2)c1=O)NCc1ccc2c(c1)OCO2	9	7
31	CNS(=O)(=O)c1ccc2c3c(cccc13)C(=O)N2	5	3
32	CC(=O)Nc1ccc(C(=O)N2CCN(Cc3cccc(-c4noc(CC(C)C)n4)c3)CC2)cc1	4	13
33	CCOC(=O)c1cnc(-c2ccc(OC)c(OC)c2)nc1NCc1sccc1C	25	25
34	CCC(OC1CCCC1)C(=O)N1CCC(n2cc(C)cn2)CC1 (stereo not given)	-2	-7
35	Cc1cc(CSc2ccc(S(=O)(=O)N3CCCC3)cn2)no1	1	2
36	O=S(=O)(NCCOc1ccc(-c2cccs2)nn1)c1ccccc1Cl	-2	-2
37	CC(C)(C)CC(C)(C)c1cc(Cc2cc(C(C)(C)CC(C)(C)C)cc(-n3nc4ccccc4n3)c2O)c(O)c(-n2nc3ccccc3n2)c1	5	5
38	CCN(Cc1cc(C(C)(C)C)n[nH]1)Cc1c(C)nn(CC)c1C	7	4
39	CN1CCN(C(=O)C/C=C/c2ccc(F)cc2)C(C)(C)C1=O	6	-3
40	COCC1(CNC(=O)CC(=O)Nc2ccc(C)cc2)CC1	2	-2
41	COc1ccc(CCN2C(=O)CC(N(C)Cc3ccsc3)C2=O)cc1 (stereo not given)	1	2
42	c1ccc(-c2nnc3ccc(-c4ccc5ncccc5c4)cn23)cc1	-11	-9
43	Cc1cccc(NC(=O)N(Cc2cccc(OS(=O)(=O)c3cccc(C(F)(F)F)c3)c2)CC(C)C)c1C	-3	4
44	N#Cc1c(NC(=O)Cn2cc([N+](=O)[O-])cn2)sc2c1CCC2	3	2
45	CC(C)C(O)c1nnc(Nc2cccc(OC(F)(F)F)c2)s1 (stereo not given)	4	3

One compound at a time, from the list above. Order of values: NPYLR7 ag, NPYLR7 ag max-min
CCC(OC1CCCC1)C(=O)N1CCC(n2cc(C)cn2)CC1 (stereo not given) across the screens: -2, -7
Cc1cc(CSc2ccc(S(=O)(=O)N3CCCC3)cn2)no1 across the screens: 1, 2
CC(=O)Nc1ccc(C(=O)N2CCN(Cc3cccc(-c4noc(CC(C)C)n4)c3)CC2)cc1 across the screens: 4, 13

Next section:
#	structure	NPYLR7 ag	NPYLR7 ag max-min
46	Cc1cc(C)c2c(n1)nn1c(NCc3ccccc3)cc(C)nc21	1	31
47	O=C(NCc1ccccc1)c1cc(S(=O)(=O)N2CCOCC2)ccc1Cl	4	-2
48	Cc1ccc(Sc2ncccc2C(=O)N2CC(C)OC(C)C2)cc1C (stereo not given)	11	11
49	CC(=O)Oc1c(-c2ccc(NC(=O)CC(C)(C)C)cc2)c(CC(C)C)nn1-c1ccc(F)cc1	12	14
50	N#Cc1ccc(CSc2nnc(C3CC3)n2C2CC2)cc1	-5	2
51	COc1cc(N=c2scc(-c3ccccc3)n2CCCN(C)C)cc(OC)c1	0	-1
52	CC1CCCN(c2nc3ccsc3c(=O)s2)C1 (stereo not given)	-3	-3
53	Cc1ccccc1CC1(C)C(=O)Nc2cc(Cl)cc(Cl)c21 (stereo not given)	2	0
54	CC(OC(C)(C)C)C(NC(=O)OCc1ccccc1)C(=O)OCc1ccc([N+](=O)[O-])cc1 (stereo not given)	3	0
55	Cc1nc2ncc3c(=O)n(CCCN(C)C)ccc3n2n1	5	5
56	Cc1ccc2oc(=O)n(CCCOc3ccccc3C)c2c1	9	13
57	c1ccc2cc(-c3cnc(NCCN4CCOCC4)cn3)ccc2c1	-4	-5
58	CCc1nc2n(n1)C(=O)C(C(c1ccc(OC)c(OC)c1)N1CCC(O)CC1)S2 (stereo not given)	-4	-9
59	CC(C)Cn1c2c(=O)[nH]c(=O)n(C)c2n2c(-c3ccccc3Cl)nnc12	-1	-2
60	O=C(CCN1CCCO1)N1CC[C@@H](c2ccc3ccccc3c2)[C@H](O)C1	11	7
61	Cc1ccc(C(C)N(C)C(=O)NCC2(N(C)C)CCCC2)cc1 (stereo not given)	-1	1
62	FC(F)(F)c1cccc(-c2noc(/C=C/c3ccccc3Cl)n2)c1	-9	-12
63	COCCn1cc(C(=O)N2CCN(C(C)C)CC2)c2nn(-c3ccccc3)c(=O)c-2c1	-3	-8
64	O=C1Cc2cc(-c3csc(-c4cccc(Br)c4)n3)ccc2N1	1	6
65	COc1ccc(NCCn2c(C)c(C)n3c4c(=O)n(C)c(=O)n(C)c4nc23)c(OC)c1	4	0
66	COc1ccccc1/C=C/CN1CCC(CO)(CCOc2ccccc2)CC1	-9	-15
67	CC(NC(=O)CCC(=O)N1CCN(S(=O)(=O)c2ccc(Cl)cc2)CC1)c1ccco1 (stereo not given)	1	6
68	COc1ccc(C(=O)NC2CC2)cc1OC1CCN(CC2CC=CCC2)CC1 (stereo not given)	11	2
69	COc1ccc(CC(=O)N2CCC3(CC2)[C@H](C(=O)N(C)c2ccccc2)[C@@H](OC)C(=O)N3C)cc1	22	28
70	CCS(=O)(=O)c1ccc2c(c1)N(Cc1ccc(F)c(Cl)c1)C(=O)C(C)O2 (stereo not given)	8	4
71	O=C1CCC(NCc2ccc(C(=O)N3CCCC3)cc2)CCN1CC1CC1 (stereo not given)	0	2
72	C=CCOc1c(I)cc(/C=N\Nc2nc(C)cc(COC)c2C#N)cc1OC	0	1
73	Cc1ccc(O)c(-n2nc3ccccc3n2)c1	-21&-9	-32&-19
74	Fc1ccc(-c2cc(C(F)(F)F)n3ncnc3n2)cc1	0	-4
75	Cc1ccc(/C=C2\SC(=S)N(CCC(=O)NNC(=O)c3ccccc3O)C2=O)cc1	12	11
76	C=CCNC(=O)NC(=O)CSc1nnc(Nc2ccc(OC)cc2)s1	-5	-11
77	CN(CC(=O)NC(=O)NCCC1=CCCCC1)C1CCCCC1	11	6
78	CCc1cnc2c(c1SCC(=O)Nc1c(C)cc(C)cc1C)c(=O)n(C)c(=O)n2C	6	13
79	CCc1nc2cc(NC(=O)CC3CCCCC3)ccc2o1	-2	-2
80	CN1CCC(Oc2ccccc2Sc2ccccc2)CC1	2	0
81	COc1ccc(OC)c(C2CC(c3ccccc3OC)=NN2C(=O)CN2CCCC2)c1 (stereo not given)	-2	-3
82	O=C(C[n+]1cc(-c2ccccc2)n2c1CCC2)c1ccc(Cl)cc1	-5	-11
83	COc1cc(COC2CCCN(C(=O)Nc3ccc(C)cc3)C2)cc(OC)c1 (stereo not given)	-5	13
84	O=C(Nc1ccnn1Cc1ccc(C(F)(F)F)cc1)c1ccccn1	0	4
85	Cc1csc(NC(=O)C2CCN(C(=O)CCc3c(F)cccc3F)CC2)n1	10	8
86	CC(C)C1CN(Cc2nccn2C)CCC(=O)N1CC1CC1 (stereo not given)	5	3
87	CSCCc1ccc(NC(=O)N2CCSCC2)cc1	14	7
88	Cc1cc(C)n(-c2cccc(C(=O)N3CCN4CCN(C)CC4C3)c2)n1 (stereo not given)	-2	-8
89	COC(=O)C1=C(C)N(C)C(=S)NC1c1cccc(NC(=O)Nc2ccc(OC)cc2OC)c1 (stereo not given)	1	1
90	CCC1=NN(C(=O)COc2ccccc2C)C(O)(c2ccncc2)C1 (stereo not given)	12	3
91	NC(=O)c1c(N=c2oc3cc(O)ccc3cc2C(N)=O)sc2c1CCCC2	6	1
92	O=C(CNc1ccccc1N1CCC(O)CC1)N1CCc2sccc2C1	6	2
93	O=C1NCC(c2ccc(Cl)cc2)Cc2[nH]c(-c3ccoc3)nc21 (stereo not given)	-1	-2
94	CCCCCCCCCCCCCCCC(=O)C(F)(F)F	6	-3
95	CN(Cc1nc2ccccc2n1C)C(=O)c1cnc(-c2cccnc2)nc1	3	-1
96	COCCN(CC(=O)N(CCc1c[nH]c2ccccc12)Cc1ccccc1)S(=O)(=O)CC12CCC(CC1=O)C2(C)C (stereo not given)	16	26
97	C/C=C(\C)C(=O)N1CCC2(CCN(C)C2=O)CC1	9	10
98	CCn1nc(C)cc1C(=O)N(CCc1cccc(F)c1)C1CC1	-8	-8
99	O=C1N(CCc2ccccc2)CCCC1(O)CNCCO (stereo not given)	0	-3
100	COc1ccc(-c2cc(CC(=O)O)no2)cc1	2	2
101	CC(NC(=O)C(C)n1cccn1)c1ccc(Cl)cc1Cl (stereo not given)	-1	-3
102	CN(CCOc1ccccc1)C(=O)[C@H](N)c1ccccc1	-5	-7
103	Cc1c(C)c(C)c(S(=O)(=O)NCCC(=O)N2CCOCC2(C)C)c(C)c1C	8	6
104	CCC(C(=O)N1CCn2c(C(N)=O)cnc2C1)n1cccn1 (stereo not given)	22	5
105	COc1ccc(NC(=O)c2[nH]c3c(c2C)C(=O)CC(C)(C)C3)cn1	11	10

Other records.
#	structure	NPYLR7 ag	NPYLR7 ag max-min
106	COc1cc2c(cc1OC)OC(C)(C)C=C2	7	6
107	COc1cccc(-c2n[nH]c(=S)n2-c2ccc(Cl)cc2)c1	5	5
108	C=CCn1c(C)cn2c3c(=O)n(Cc4ccc(Br)cc4)c(=O)n(C)c3nc12	9	14
109	Cc1ccc(C(=O)N(C)C2(C)CCS(=O)(=O)C2)cc1C (stereo not given)	11	9
110	CCOc1cccc2cc(C(N)=O)c(=Nc3ccc(C(C)=O)cc3)oc12	-13	-26
111	COc1ncccc1C(=O)N1CCOC(c2ccc(Cl)c(Cl)c2)C1 (stereo not given)	3	0
112	Cc1onc(-c2ccccc2Cl)c1C(=O)N1CC(c2ccncc2)C1	8	0
113	CCOCCOc1nc(-c2cccc(OC)c2)n(-c2ccc(NCC(O)COCC(C)C)cc2)n1 (stereo not given)	-4	-3
114	CCOC(=O)c1csc(CNCCCOC)n1	-4	-10
115	O=C(NCc1ccc(C(=O)N2CCCCC2)cc1)C1Cc2ccccc2O1 (stereo not given)	3	1
